High-throughput results deposited in PubChem by National Center for Advancing Translational Sciences (NCATS).
D2 agonist: agonists of human D2 dopamine receptor (beta-arrestin). activation, % (no concentration beside the values). P14416. AID 624465. DiscoveRx PathHunter D2 beta-arrestin, luminescence, 90 min; 100% = 57 uM dopamine signal. 360,000 tested, 0.084% active; in the data active = activation above about 40%; inconclusive = about 15% to 40%; inactive = below about 15%; note: compound concentration not given in the record; the text of the record calls up to 30% inactive
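Agonist mode: compounds alone added to overnight-plated D2 PathHunter cells for 90 min at 37 C, with 57 uM final dopamine (EC100) defining full response. Beta-arrestin recruitment detected by chemiluminescent reagent, read after 1 h at ambient temperature.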
TRPV1 potentiator: enhances activation of the human vanilloid receptor TRPV1; Q8NER1; TRPV1-expressing cells, Fluo-8 calcium influx, capsaicin EC20 potentiation; host cell line not named in the record; control for the full effect not named in the record; potentiation, % at 8.33 µM; 320,000 tested, 0.02% active; active means potentiation above 80%; inconclusive means 30% to 80%; inactive means below 30%; note: 0% is about no effect
Target sequence (Q8NER1 whole entry, looked up): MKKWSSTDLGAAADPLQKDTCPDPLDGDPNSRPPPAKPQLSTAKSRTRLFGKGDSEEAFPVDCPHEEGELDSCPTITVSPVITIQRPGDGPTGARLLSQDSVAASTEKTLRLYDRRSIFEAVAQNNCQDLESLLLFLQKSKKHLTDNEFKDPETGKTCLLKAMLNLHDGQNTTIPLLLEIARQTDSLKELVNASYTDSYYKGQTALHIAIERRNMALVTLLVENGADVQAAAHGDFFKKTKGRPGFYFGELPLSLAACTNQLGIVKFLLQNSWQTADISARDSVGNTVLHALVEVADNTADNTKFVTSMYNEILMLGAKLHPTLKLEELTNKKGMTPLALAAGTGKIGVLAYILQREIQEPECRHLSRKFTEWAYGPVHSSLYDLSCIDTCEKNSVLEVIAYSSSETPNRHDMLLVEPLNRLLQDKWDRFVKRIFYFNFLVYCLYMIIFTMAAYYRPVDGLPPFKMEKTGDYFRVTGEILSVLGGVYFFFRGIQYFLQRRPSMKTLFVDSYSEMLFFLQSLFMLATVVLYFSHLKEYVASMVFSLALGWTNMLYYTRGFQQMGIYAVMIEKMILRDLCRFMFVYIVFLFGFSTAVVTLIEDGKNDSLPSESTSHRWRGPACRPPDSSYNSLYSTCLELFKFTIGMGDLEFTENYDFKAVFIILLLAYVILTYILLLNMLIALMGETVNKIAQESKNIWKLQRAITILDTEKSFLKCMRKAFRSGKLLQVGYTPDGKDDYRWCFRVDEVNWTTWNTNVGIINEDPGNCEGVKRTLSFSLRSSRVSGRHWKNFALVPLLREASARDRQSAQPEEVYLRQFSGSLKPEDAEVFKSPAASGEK
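TRPV1-expressing cells were cultured overnight at 35.5C and loaded with Fluo-8 calcium dye for 40 to 90 min at room temperature. After a 10 s baseline, compound was added and calcium influx was read kinetically for 3 min (ex 480/em 520 nm).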
D2 PAM: positive allosteric modulators of human D2 dopamine receptor | P14416 | DiscoveRx D2 beta-arrestin cells, luminescence, 90 min; 100% = 57 uM dopamine signal | potentiation, % (concentration not given with the values) | 360,000 tested, 0.23% active; active = potentiation of 50% or more; inconclusive = 30% to 50%; inactive = 30% or less;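 note: compound concentration not given in the record; tested on top of an EC20 dose of dopamine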
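PathHunter beta-arrestin assay in DiscoveRx D2 cells. Compounds were added with an EC20 of dopamine (50 nM final) for 90 min at 37 deg C. Luminescence was read 1 h after detection reagent, with 57 uM dopamine as the EC100 control.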
CtBP-E1A blk: blocks the CtBP interaction with E1A | AlphaScreen GST-E1A/His-CtBP binding, 1536-well; hits give low values; control for the full effect not named in the record | activity change, % (no concentration beside the values) | 340,000 tested, 0.49% active | AID 651724; in the data active means activity change below about -65%; inconclusive means about -30% to -65%; inactive means above about -30%; note: % is set by controls: 0 for no effect and ±100 for the full control effect; compound concentration not given in the record
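Homogeneous bead-based format: GST-tagged E1A captured on glutathione donor beads, His-tagged CtBP on nickel acceptor beads; compounds precede bead addition by 2 h at 37 °C.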
Sfp PPTase inh: inhibitors of Bacillus subtilis Sfp phosphopantetheinyl transferase. Q9F4F7. Biochemical Sfp PPTase activity, qHTS. Potency, µM, for inactives: max response, negative = inhibition, most hits filed as inhibitors. 310,000 tested, 3.5% active; active = well fitted inhibition curve with a large enough effect; inconclusive = small, poorly fitted or top-dose-only effect, or another doubt; inactive = no such curve, though single readings can be large or run the other way;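 note: the enzyme is Sfp with the accession as filed and its product quenches rhodamine fluorescence; potency is the fitted concentration of half-maximal effect; 0% = enzyme reaction without inhibitor and -100% = no enzyme wells; top concentration of the series not given in the record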
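With Hepes-Na pH 7.6 buffer containing 10 mM MgCl2, Sfp (15 nM) modified BHQ-2-YbbR (12.5 uM) using rhodamine-CoA (5 uM). Two reads 30 minutes apart at 525/598 nm yielded each well's rate.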
PINK1 expr mod: modulators of PINK1 expression. Potency, µM (top dose mostly 76.6 µM), without a hit: top-dose activation (PINK1 increase), most hits filed as activators. 410,000 tested, 0.2% active. PINK1 immunofluorescence, high-content cytometry, 24 h; active = well fitted activation curve with a large enough effect; inconclusive = small, poorly fitted or top-dose-only effect; inactive = flat fitted curve, though single readings scatter; cell line not stated here;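 note: potency is the fitted concentration of half-maximal effect; % of control where 0% means no effect; nearly all actives have a fitted effect of over 65% in size; a mitochondrial uncoupler was the plate control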
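PINK1 protein, normally rapidly degraded, was detected by immunofluorescence after 24 hour compound treatment of a stable cell line. Titration data (5 concentrations) came from laser-scanning cytometry, with CCCP-treated wells as controls.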
Six1-Eya2 blk: inhibitors of human Six1/Eya2 interaction; Q15475+O00167; 360,000 tested, 0.56% active; activity change, % (test concentration not listed); AID 651725; AlphaScreen GST-Six1/His-Eya2 binding, biochemical; hits give low values; control for the full effect not named in the record; in the data active = activity change below about -65%; inconclusive = about -30% to -65%; inactive = above about -30%; note: % is set by controls: 0 for no effect and ±100 for the full control effect; compound concentration not given in the record
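GST-Six1 + His-Eya2 (5X stock: 250/500 nM); Tris pH 8.0, 300 mM NaCl, 0.05% BSA, 0.02% Tween 20; GSH donor/Ni acceptor beads; 1 h 37 °C dark; AlphaScreen readout.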
* = called active by the depositor; ? = inconclusive; nt = not tested or not shown; & = joins results of further samples; [ ] = dose if it differs, or a comment.

SMILES	D2 agonist	TRPV1 potentiator	D2 PAM	CtBP-E1A blk	Sfp PPTase inh	PINK1 expr mod	Six1-Eya2 blk
O=C(CNc1cccc(S(=O)(=O)N2CCOCC2)c1)Nc1cccc(Br)c1	-0.1	?	-23	1	nt	3.5%	21
Nc1cc(F)ccc1N1CCCCCC1	1.5	-1	-4	1	?	0.4%	2
Cc1ccc(NC(=O)CCn2nc([N+](=O)[O-])cc2C)nc1	-0.7	7	-23	0	29%	1.8%	11
COC(=O)C(CCCN1C(=O)c2ccccc2C1=O)(NC(C)=O)c1nn[nH]n1 (centres undefined)	-2.0	6	-6	7	13%	-1.0%	10
COc1ccc(S(=O)(=O)N2CCCC2C(=O)NCc2ccccc2Cl)cc1 (centres undefined)	-2.0	-8	-6	-4	15%	1.0%	1
O=C(O)c1cc(S(=O)(=O)O)ccc1O	-1.4	?	-7	10	-10%	0.0%	12
O=C(CN1C(=O)CNC1=O)Nc1ccc(Cl)cc1	1.0	-7	-3	5	-1%	0.8%	1
CCOC(=O)c1cc2sccc2n1CC(=O)N1c2ccccc2CC1C (centres undefined)	-1.1	-7	-10	-5	-1%	12%[38.3 µM]	3
Cc1ccccc1-c1ccc(Nc2ccc(N3CCOCC3)cc2)nn1	1.2	?	-16	-24	?	0.4%[38.3 µM]	?
CC(=O)N1CCC(C(=O)NCCOc2cccc(C)c2)CC1	1.2	4	1	-2	-1%	-0.5%	-13
C[C@@H]1CN([C@@H](C)CO)C(=O)CCCn2cc(nn2)CO[C@H]1CN(C)C(=O)c1cc(-c2ccccc2)on1	-6.6	nt	-2	-7	nt	1.7%	-2
Cc1cc(C)nc(NS(=O)(=O)c2ccc(NC(=O)C(C)C)cc2)n1	-3.1	1	1	nt	3%	-0.2%	2
Cc1c(C=O)c2ccccc2n1CCOc1ccccc1F	15	?	-2	nt	-1%	1.1%	3
O=C(COC(=O)c1ccc(F)cc1F)Nc1ccc(S(=O)(=O)N2CCOCC2)cc1	-0.7	nt	-10	-4	nt	1.5%	-5
Cc1cccc(OCCCCn2c(CO)nc3ccccc32)c1	-0.5	-15	-8	nt	11%	5.5%	3
c1ccc2c(c1)COc1c3ncccc3nn1-2	-2.5	nt	-4	-9	nt	3.0%	17
O=C(OCc1nnc(-c2ccc(Cl)cc2)o1)c1ccncc1	-1.4	-22	9	1	13%	0.5%	2
Cc1ccc(S(=O)(=O)NCC(=O)NCC(=O)NCCc2ccccc2F)cc1C	-0.8	-2	-4	-10	nt	-1.9%	12
COc1ccc(C2=NOC(C)(c3nnc(-c4ccc(Cl)cc4)o3)C2)cc1 (centres undefined)	-1.3	nt	-14	4	nt	0.6%	3
COc1cc(/C=C/C(=O)NC(=O)c2ccccc2O)ccc1O	0.6	1	-2	-15	3%	0.1%	-5
COCc1cc(C)n(CC(=O)OC)c(=O)c1C#N	0.4	0	5	-5	21%	3.0%	6
Cc1noc(C)c1S(=O)(=O)Nc1ccc2c(c1)C(=O)N([C@H](C)CO)C[C@@H](C)[C@@H](CN(C)Cc1ccc3c(c1)OCO3)O2	-1.2	nt	nt	3	nt	-0.2%	1
CCOCCCNC(=O)C(NC(=O)c1ccc(NC(C)=O)cc1)c1ccc(Cl)cc1 (centres undefined)	-3.1	1	4	-20	7%	5.2%	4
CCN1CCN(C(=O)COCc2cc(-c3ccc4c(c3)OCO4)on2)CC1	-5.0	9	-13	-5	4%	1.1%	5
COc1ccc2c(c1)c(=O)oc1cc(OCC(=O)N3CCc4ccccc4C3)ccc12	-0.1	16	-3	-13	?	1.0%	-6
The results go on:
SMILES	D2 agonist	TRPV1 potentiator	D2 PAM	CtBP-E1A blk	Sfp PPTase inh	PINK1 expr mod	Six1-Eya2 blk
CC(C)C(NS(=O)(=O)c1ccccc1)C(=O)OCC(=O)NNC(=O)c1ccccc1 (centres undefined)	-3.2	-2	-3	5	nt	0.9%	1
CCOC(=O)c1ccc(N2C(=O)CC(N3CCN(C/C=C/c4ccccc4)CC3)C2=O)cc1 (centres undefined)	2.7	-29	-36	0	8%	-0.3%	-3
O=C(NCc1cccs1)Nc1cccs1	-0.9	-5	-11	-1	18µM*	0.7%	-7
Cc1cc(=O)oc2cc(Oc3ccc([N+](=O)[O-])cc3C(F)(F)F)ccc12	5.5	nt	-1	nt	nt	-0.6%	-16
Cc1ccc2[nH]c3c(c2c1)CCCC3NC(=O)CCl (centres undefined)	-3.6	-42	-4	1	17%	-1.1%	-2
CCCn1cnnc1CNC(=O)[C@H]1O[C@@H](n2cnc3c(N)ncnc32)[C@H](O)[C@@H]1O	-4.5	nt	-5	7	nt	0.3%	7
C=CCOc1ccc(CNn2cn[nH]c2=S)cc1OC	1.2	-9	3	2	-15%	nt	2
CCc1c(C)nc(N)nc1OCC(F)(F)C(F)F	-0.5	-8	1	-3	-8%	4.1%[38.3 µM]	3
COc1ccc(S(=O)(=O)N(CCC(N)=O)Cc2ccco2)cc1OC	-1.4	1	-5	1	6%	1.2%	10
CCN1CCN(C(=O)CS(=O)Cc2nc(-c3ccc(OC)cc3)oc2C)CC1 (centres undefined)	-5.0	?	-4	-1	-13%	0.6%	2
Cc1ccc(CNS(=O)(=O)c2ccc3c(c2)n(C)c(=O)c(=O)n3C)cc1	-0.8	12	1	5	21%	3.5%	1
Cc1cc2nc(N3C(=O)CNC3=S)sc2cc1C	-1.2	2	10	0	2%	6.0%	-1
NC(=O)C1CCN(C(=O)/C(=C/c2ccco2)NC(=O)c2ccccc2)CC1	3.7	10	-8	21	9%	2.1%	-2
O=C(CSc1nccn1Cc1ccccc1)NCc1ccccc1	0.2	26	7	1	26%	nt	-1
FC(F)(F)C(F)(F)c1nc2nc(Cl)c(Cl)nc2[nH]1	-2.2	nt	-1	-7	nt	-0.7%	4
C=CCNCCOCCSc1ccc(Cl)cc1	6.2	16	-28	5	-13%	1.3%	5
Cc1nc(NC(=O)CSc2nc3ccccc3s2)sc1C(=O)N(C)C	-0.6	11	9	-6	4%	2.4%	9
O=C(COc1ccc2ccccc2c1)N[C@@H](C(=O)O)c1ccc(O)cc1	5.9	13	7	nt	-11%	0.6%	6
CCOC(=O)N1CCN(C(=O)C2CCN(S(=O)(=O)N3CCCC3)CC2)CC1	-2.7	5	-3	-11	11%	nt	-11
O=C(NCCN1CCCCC1)Nc1ccccc1F	-2.4	6	-45	nt	12%	-1.0%	-3
Cc1ccc(S(=O)(=O)N2CCC(C(=O)NCCc3ccc(S(N)(=O)=O)cc3)CC2)cc1	1.7	6	6	7	13%	3.2%[38.3 µM]	8
COc1ccccc1NC(=O)c1ccc(NC(=O)c2ccco2)cc1	-3.2	6	1	13	1%	0.5%	8
CN(C)S(=O)(=O)n1cnc2ccccc21	-3.6	-1	-12	6	16%	1.0%	?
COc1ccc(CN2C(=NC(=O)C3CCCO3)SC3CS(=O)(=O)CC32)cc1OC (centres undefined)	-4.7	9	-8	-2	4%	-0.1%	4
COc1ccc(OCCC(=O)OCC(=O)NCCc2ccccc2)cc1	1.7	-2	2	1	5%	-0.7%	-2

Reprinted at random: three entries already listed
SMILES	D2 agonist	TRPV1 potentiator	D2 PAM	CtBP-E1A blk	Sfp PPTase inh	PINK1 expr mod	Six1-Eya2 blk
NC(=O)C1CCN(C(=O)/C(=C/c2ccco2)NC(=O)c2ccccc2)CC1	3.7	10	-8	21	9%	2.1%	-2
Cc1ccc(CNS(=O)(=O)c2ccc3c(c2)n(C)c(=O)c(=O)n3C)cc1	-0.8	12	1	5	21%	3.5%	1
Cc1cc2nc(N3C(=O)CNC3=S)sc2cc1C	-1.2	2	10	0	2%	6.0%	-1

Other compounds follow:
SMILES	D2 agonist	TRPV1 potentiator	D2 PAM	CtBP-E1A blk	Sfp PPTase inh	PINK1 expr mod	Six1-Eya2 blk
CCN(CC(=O)Nc1c(F)cccc1F)C(=O)c1ccc2c(c1)OCO2	-3.9	2	-12	nt	nt	1.3%	8
COc1cc(Nc2ncc3c(n2)CCN(C(=O)Nc2ccc(C(C)C)cc2)C3)cc(OC)c1OC	5.5	nt	-6	-16	nt	3.8%	-12
COc1ccc(Oc2ncnc3c2ncn3Cc2ccccc2)cc1	2.5	14	5	2	-4%	-0.7%	4
CCn1nc(C(=O)Nc2cccc(S(=O)(=O)N3CCCC3)c2)c2ccccc2c1=O	-0.3	-2	-1	-7	nt	1.9%	-5
COC(c1ccccc1)c1nnc(CCC(=O)NC2CCCCC2)o1 (centres undefined)	0.0	14	-6	3	6%	-0.9%	4
CC(=O)c1cccc(NC(=O)C(OC(=O)/C=C/c2ccc3c(c2)OCO3)c2ccccc2)c1 (centres undefined)	-1.1	15	-15	-10	21%	-2.0%	-1
CC(=O)Nc1ccc(NC(=O)CCc2nc3sc4c(c3c(=O)[nH]2)CCCC4)cc1	-4.3	8	-1	3	nt	?	-12
CC1(C(=O)NS(=O)(=O)c2ccc3c(c2)CCO3)CCN1C(=O)C1(c2ccc(Cl)cc2)CCC1 (centres undefined)	2.7	nt	2	4	nt	0.5%	6
Cc1cccc(NC(=O)Nc2ccc(C)c(C)c2)n1	-3.0	1	-4	-3	?	0.4%&0.9%	4
CN(CCc1ccccn1)C(=O)Nc1ccc(Cl)cc1	0.7	2	1	2	15%	?	3
Cc1ccc(-c2csc3nc[nH]c(=O)c23)cc1	-5.0	18	-3	-2	9%	-1.6%	-3
CCc1nnc(NC(=O)C2Cc3ccccc3CN2S(=O)(=O)c2c(C)c(C)cc(C)c2C)s1 (centres undefined)	-2.7	15	-3	-25	-6%	-1.5%[38.3 µM]	-16
CCOc1cccc(/C(O)=C2/C(=O)C(=O)N(CCOC)C2c2ccncc2)c1 (centres undefined)	-1.3	4	11	-2	2%	0.8%	7
CCOC(=O)CC(=O)Nc1ccccc1C(=O)O	2.1	-15	19	6	14%	0.1%	9
COc1ccc(/C=N/Nc2nonc2N)cc1OC	1.4	-5	-14	-8	12%	-1.3%	-6
NS(=O)(=O)c1ccc(CNS(=O)(=O)c2ccc3c(c2)OCCO3)cc1	-5.6	4	-4	0	20%	-1.2%	2
CCc1nc2c(OCc3ccc(Cl)cc3Cl)cccn2c1N(C)C(=O)CC(C)C	0.6	nt	0	-8	nt	20%	-1
CC1(C(=O)NS(=O)(=O)c2ccc(Br)cc2)CCN1C(=O)c1cccc(F)c1 (centres undefined)	-7.0	nt	-7	1	nt	0.1%	1
COc1ccc(CCNC(=O)c2ccc(Cl)c(S(=O)(=O)N3CCCC3)c2)cc1	-0.8	-29	-9	nt	nt	2.5%	-2
CCOC(=O)c1cnc2ccc(OCC)cc2c1NCc1ccccc1OC	0.5	-12	-6	15	56µM*	?	1
